From PubChem
Calb biofilm kill – mixtures killing C. albicans biofilm; C. albicans biofilm persisters + clotrimazole, fluorescence viability; primary screen in compound mixtures of four per well; inhibition, % at 7.6 µM; actives 0.02% (n = 120,000);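 active = inhibition above 30.3% in the primary screen of four-compound pools, then above 30% when the compound was retested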;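 note: compounds exposed to preformed 24 h biofilms for 48 h; the number belongs to the whole pool; some results filed as inactive read as strong as hits; inactives centre near 12; 0% = biofilm with clotrimazole alone and 100% = kill control; retested singly at about 60 µM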
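Probe or stimulus – Clotrimazole 50 µg/mL co-treatment · System – C. albicans biofilms · Schedule – 24 h biofilm formation, then 48 h compound exposure, 37 °C · Evaluation – percent inhibition of biofilm viability · Technique – 2-h Alamar Blue fluorescence, 535/590 nm excitation/emission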
The depositor's hits bear a star; & = joins results of further samples. An excerpt; the hit share may differ from the screen's.

SMILES	Calb biofilm kill
Cc1ccc(NC(=O)c2c(Cl)nc3ccccn23)cc1	3
C=CCN1C(=O)/C(=C/c2ccc(OCC(=O)O)cc2)S/C1=N/c1nccs1	15
C/C(=N\NC(=O)Cn1nc(C)c([N+](=O)[O-])c1C)c1ccc(Cl)s1	23
Cc1ccc(C(=O)N2CCCC(C(=O)c3ccc(Oc4ccccc4)cc3)C2)cn1 (stereo not drawn)	15
CS/C(=C\C(=O)c1ccco1)Nc1ccccc1Cl	11
CN1CCN(Cc2cn[nH]c2-c2ccc(F)cc2F)[C@@H](c2ccccc2)C1	15
COc1cc(-c2nnc(CSc3nnc(Nc4ccc(C(C)C)cc4)s3)o2)cc(OC)c1OC	13
CC(C)C(C)NC(=O)CN1C(=O)NC2(CCc3ccccc3C2)C1=O (stereo not drawn)	-2
CCn1c(=O)cc(OCC(=O)N2CCN(c3ccc(F)cc3)CC2)c2ccccc21	17
O=C(Oc1ccc(C(=S)N2CCC(O)CC2)cc1)c1ccc(Cl)cc1	10
Cc1ccc(S(=O)(=O)Nc2ccc(N3CCCCC3)cc2)cc1	-12
Cn1c(SCC(=O)c2ccc(O)c(O)c2)nnc1-c1cccs1	5
Fc1ccc(SCCc2ccccn2)cc1	20&11
O=C(CCc1nc2ccccc2c(=O)[nH]1)NCc1ccccn1	14
CN(C)C(=O)C(NC(=O)c1ccccc1)=C(Cl)Cl	16
Cc1ccc(NC(=O)C2C3CCCC2C3c2ccccc2)cc1 (stereo not drawn)	14
CCCn1c(=S)[nH]c2ccccc2c1=O	24
CNC(=O)c1ccc(-c2ccc(Cl)c(Cl)c2)s1	14
CC(C)Cn1c(S(=O)(=O)O)nc2ccccc21	7
O=C(Nc1cccc(Cl)c1)c1ccc(F)c(S(=O)(=O)NCc2ccc3c(c2)OCO3)c1	17
COc1ccc2nc3ccccc3nc2c1N	-6
CCc1ccc2c(c1)C(=O)C(=O)N2CC(=O)Nc1ccc(NC(=O)c2ccccn2)cc1	15
CS(=O)(=O)N1N=C(c2ccccc2)CC1c1ccc2c(c1)OCO2 (stereo not drawn)	14
CC(C)=NNc1nc(-c2ccc([N+](=O)[O-])cc2)cs1	6
O=C(N/N=C/c1cc2ccccc2nc1Cl)c1ccncc1	18
Cc1cn(C2OC(COC(=O)c3ccccc3)C(OC(=O)c3ccccc3)C2OC(=O)c2ccccc2)c(=O)[nH]c1=O (stereo not drawn)	8
Cc1cc(=O)oc2cc(Oc3ncccc3[N+](=O)[O-])ccc12	11
O=C1Nc2ccccc2N(O)N1c1ccc(S(=O)(=O)N2CCCCCC2)cc1	15
COc1cc(/C=C2/NC(=O)NC2=O)cc(Br)c1OCc1ccc(C(=O)O)cc1	7
COc1ccc(NC(=O)C2CCN(c3nc(C)cc(C)n3)CC2)cc1	13
CCCCNC(=S)Nc1cc([N+](=O)[O-])ccc1C	18
CC(NS(=O)(=O)c1ccc(CCC(=O)NCC2CCCO2)cc1)c1ccccc1 (stereo not drawn)	6
COc1ccc(C(CC(=O)N2CCN(c3ccccc3)CC2)c2c(OC)cc(OC)c3c(-c4ccccc4)cc(=O)oc23)cc1 (stereo not drawn)	6
O=C(COC(=O)/C=C/c1cccc(F)c1)Nc1ccccc1-c1ccccc1	0
Cc1ccccc1C(=O)Nc1ccccc1C(=O)NCC(C)C	-5
O=C(NCCNC1CCC(c2ccccc2)CC1)c1ccc(F)cc1 (stereo not drawn)	10
COc1cc(NC(=S)N2CCC(C(O)(c3ccccc3)c3ccccc3)CC2)cc(OC)c1	-3
CCOc1ccccc1N(CC(=O)NC1CCCCC1)C(=O)CNC(=O)c1ccco1	12
S=C(NCc1ccco1)NCC(c1ccco1)N1CCCCC1 (stereo not drawn)	8
Cc1cc(C(=O)NN=C2CCCCCC2)c(C)o1	23
CCOC(=O)C1(CCOc2ccccc2)CCN(C(=O)c2ccc(-n3cccn3)cc2)CC1	13
CCC(C)(C)n1nnnc1C(C(C)C)N(Cc1cccnc1)Cc1ccco1 (stereo not drawn)	19
COc1ccccc1N(C)S(=O)(=O)c1ccc(C(=O)OCC(=O)NCCC2=CCCCC2)cc1	14
CCC(=O)NC(=S)Nc1ccc(NC(=O)c2ccco2)c(OC)c1	13
COc1ccc(-n2cc(CN(C)Cc3n[nH]c(=O)[nH]3)c(-c3cccc(F)c3)n2)cc1	23
CC(=O)N1CCN(C(=S)NC(=O)c2c(-c3ccccc3Cl)noc2C)CC1	11
Cc1ccc(N2C(=O)/C(=C/c3ccco3)SC2=S)cc1	16
Fc1ccccc1-c1nc(NCc2ccco2)c2ccccc2n1	22
COc1ccc(C)cc1NC(=O)CCN1CC(C)OC(C)C1 (stereo not drawn)	14
O=C(NCc1ccc2c(c1)OCO2)c1cccnc1Cl	9

Following part.
SMILES	Calb biofilm kill
CCCn1c(C)cc(C(=O)CSc2nc3ccccc3c(=O)n2Cc2ccco2)c1C	14
S=C(NCc1ccccc1)NCc1ccc2c(c1)OCO2	12
COc1ccc(C(=O)N/N=C\c2coc3ccccc3c2=O)cc1	14
COc1ccc(CNC(=O)c2ccc(CS(=O)(=O)Cc3ccccc3F)o2)cc1	-3
Cc1c(N/C=C/C(=O)C(F)(F)F)c(=O)n(-c2ccccc2)n1C	15
CC(C)[C@H](NC(N)=O)C(=O)Nc1cccc(S(=O)(=O)N2CCOCC2)c1	7
CCc1sc(C(=O)Nc2cccc(C(C)=O)c2)cc1C	3
C/C(=N\NC(N)=S)C1C2C3CC4C5CC(C42)C1C53 (stereo not drawn)	13
O=C(CSc1nnc(-c2ccccc2)n1-c1ccc(Cl)cc1)N/N=C/c1ccccc1C(=O)O	16
COc1cc(CNc2ncn[nH]2)ccc1OCC(=O)NC(C)(C)C	7

Sorted by number of heavy atoms (smallest number first): part of the list above
SMILES	Calb biofilm kill
Cc1c(N/C=C/C(=O)C(F)(F)F)c(=O)n(-c2ccccc2)n1C	15
COc1ccc(C(=O)N/N=C\c2coc3ccccc3c2=O)cc1	14
COc1ccc(CNC(=O)c2ccc(CS(=O)(=O)Cc3ccccc3F)o2)cc1	-3

Later entries:
SMILES	Calb biofilm kill
CC(=O)N1CCN(c2ccc(NC(=O)c3ccc(Br)o3)cc2Cl)CC1	6
O=C(NCc1ccc(F)cc1)C(=O)NCC(c1ccco1)N1CCOCC1 (stereo not drawn)	17
COCCNC(=O)c1cnn2c(C(F)F)cc(-c3ccccc3)nc12	2
Cc1nn(CC(=O)Nc2ccc(Cl)c(S(=O)(=O)N(C)C)c2)c(C)c1[N+](=O)[O-]	14
Cc1cc(C)c2cc(C(=O)N3CCC(Cc4ccccc4)CC3)[nH]c2c1	26
C/C(CC(=O)Nc1ccc(C)c(Cl)c1)=N\NC(=O)Cc1cnc(N)s1	11
COCCNC(=O)[C@@]1(Cc2ccccc2)C=C[C@@H](C)N1C(C)=O	9
S=C(NCC(c1ccco1)N1CCCC1)Nc1ccccc1 (stereo not drawn)	15
Cc1ccc(NC(=O)COC(=O)CN2C(=O)C3CCCCC3C2=O)cc1S(=O)(=O)N1CCOCC1 (stereo not drawn)	5
N#Cc1cc(-c2ccccc2)[nH]c1-c1nccc2ccccc12	17
O=C(Cc1ccc(-c2ccccc2)cc1)NC(c1ccccc1)c1ccccc1	17
CC(C)CCC(O)(CCC(C)C)C(=O)NNc1ccccc1	12
CC(=O)c1ccc(NC(=O)N2C3CCC2CC(O)(c2cccnc2)C3)cc1 (stereo not drawn)	13
COc1ccccc1C(C[N+](=O)[O-])c1c(N)n(C)c(=O)n(C)c1=O (stereo not drawn)	29
CCCn1cnc2c(=O)oc3ccccc3c21	11
CC(=O)c1csc(COc2ccccc2)n1	22
O=C(NC1CCCCCC1)C1Cc2ccccc2CN1C(=O)c1ccco1 (stereo not drawn)	-4
CCC(=O)N1N=C2CC(C)(C)OCC2C1c1ccccc1 (stereo not drawn)	11
Cc1ccc(C(C(=O)NC2CCCCC2)N(Cc2ccco2)C(=O)Cn2cnc3ccccc32)cc1 (stereo not drawn)	12
O=[N+]([O-])c1cccc(-c2nnc(-c3ccc4c(c3)OCO4)o2)c1	12
CC(=O)N1CCN(C(=S)NCc2ccccc2)CC1	9
COC(=O)c1c(NS(=O)(=O)c2ccccc2)csc1C	11
COc1ccc(C2c3ccc4ccccc4c3Oc3ncn(CCN4CCOCC4)c(=N)c32)cc1OC (stereo not drawn)	15
O=C(c1cccc(N2C(=O)C3CC=CCC3C2=O)c1)N1CCCc2ccccc21 (stereo not drawn)	8
COc1cccc(-n2cc(CN(C)Cc3nc(Cc4cccc(F)c4)no3)cn2)c1	29
O=C(Cn1cnc2ccccc2c1=O)NCc1cccs1	9
COC(=O)c1ccc2c(=O)n(CC3CCCO3)c(SCC(=O)Nc3ccc(OC)cc3OC)nc2c1 (stereo not drawn)	8
COC(=O)c1cccnc1-n1c(=O)c2cccnc2n(Cc2cccc(C(F)(F)F)c2)c1=O	12
O=C(C1=C[C@@H](c2ccc(C(F)(F)F)cc2)C[C@@H](OCc2ccc(CO)cc2)O1)N1CCOCC1	11
COc1cccc(/C=N/n2cnc3cc(C)c(C)cc32)c1OC	16
Nc1c(-c2ccccc2)c(CN2CCOCC2)nn1-c1cccc([N+](=O)[O-])c1	12
CCSc1nc2ccccc2n1CCOc1ccccc1	17
O=C(CSc1nnc(-c2ccccc2F)n1CCc1ccccc1)Nc1ccc2[nH]c(=O)[nH]c2c1	13
Cc1cc(Oc2nc3c(C)cccn3c(=O)c2/C=C(\C#N)S(=O)(=O)c2ccccc2)ccc1Cl	18
Cc1c(-n2c(SCC(=O)N(C)C3CCS(=O)(=O)C3)nc3ccccc3c2=O)c(=O)n(-c2ccccc2)n1C (stereo not drawn)	15
COC(=O)c1ccc(NC(=S)NCCCn2ccnc2)cc1	8
CC(=O)Nc1sc2c(c1CN1CCCC1)CCCC2	11
CC(=O)NCCC(=O)Nc1nc(C)c(Cc2ccc3c(c2)OCO3)s1	11
CCCCCCCC(=O)N/N=C/c1ccc([N+](=O)[O-])o1	20
O=C(O)/C=C\C(=O)Nc1ccccc1C(=O)NCc1ccccc1	10
O=C(Cc1coc2ccc3ccccc3c12)NCc1cccs1	8
O=C(O)/C=C/c1ccccc1Oc1ccc(Cl)cc1Cl	11
CC(=O)c1ccc(NC(=O)C(C)OC(=O)c2ccc(NS(=O)(=O)c3ccc(F)c(F)c3)cc2)cc1 (stereo not drawn)	8
C=CCN(c1ccc(C(=O)Nc2cccc(C)c2)cc1)S(C)(=O)=O	16
Nc1ccccc1Nc1cc(-c2ccccc2)[nH]n1	3
Cc1ccc2nc(Nc3nc(CSc4nc5ccccc5s4)cc(=O)[nH]3)nc(C)c2c1	10
Fc1ccc(/C=C2\CCCC3=C2NC(=S)NC3c2ccc(F)cc2)cc1 (stereo not drawn)	8
CCn1c(SCC(=O)c2c(N)n(C)c(=O)n(C)c2=O)nnc1-c1ccccc1	22
CCCCc1nc2ccccc2c(=O)n1NC(=O)c1c(O)c2ccccc2n(C)c1=O	14
COC(=O)c1ccc2c(c1)NC(=O)CS2	18

Later entries
SMILES	Calb biofilm kill
CN1CCC2(CC1)N=C(c1ccc(F)cc1)C(=S)N2C(=O)c1ccc(C(C)(C)C)cc1	-10
Cc1ccccc1NC(=O)CC1SC(=Nc2ccc(O)cc2)NC1=O (stereo not drawn)	15
COc1ccc(NC(=O)N2CCCC(C(=O)NC(C)C)C2)cc1 (stereo not drawn)	2
O=C(NNC(=O)c1ccccc1[N+](=O)[O-])Nc1ccc(Cl)cc1	2
CC1Cc2ccccc2N1S(=O)(=O)c1cccc(C(=O)OCC(=O)NCc2ccco2)c1 (stereo not drawn)	3
COC(=O)c1ccc(NC(=O)COC(=O)c2nc3nccc(C)n3n2)cc1	8
COc1ccc(C/C(N)=N/O)cc1	7
COc1ccc(N(CC(=O)NCc2ccc3c(c2)OCO3)C(=O)CCC(=O)Nc2ccccn2)cc1	25
CC(Cc1ccccn1)NC(=O)CCc1nnc(C2CCCCC2)o1 (stereo not drawn)	3
COC(=O)C12CC3CC(C1)CC(n1cnc(Cl)n1)(C3)C2	6
O=S(=O)(Nc1cccc2c1CCCC2)c1ccc(Cl)cc1	5
CCOc1ccc(N=C2NN=C(c3cc(C)n(CC4CCCO4)c3C)CS2)cc1 (stereo not drawn)	8

19 consecutive compounds out of the list so far, quoted:
SMILES	Calb biofilm kill
O=C(Cc1coc2ccc3ccccc3c12)NCc1cccs1	8
O=C(O)/C=C/c1ccccc1Oc1ccc(Cl)cc1Cl	11
CC(=O)c1ccc(NC(=O)C(C)OC(=O)c2ccc(NS(=O)(=O)c3ccc(F)c(F)c3)cc2)cc1 (stereo not drawn)	8
C=CCN(c1ccc(C(=O)Nc2cccc(C)c2)cc1)S(C)(=O)=O	16
Nc1ccccc1Nc1cc(-c2ccccc2)[nH]n1	3
Cc1ccc2nc(Nc3nc(CSc4nc5ccccc5s4)cc(=O)[nH]3)nc(C)c2c1	10
Fc1ccc(/C=C2\CCCC3=C2NC(=S)NC3c2ccc(F)cc2)cc1 (stereo not drawn)	8
CCn1c(SCC(=O)c2c(N)n(C)c(=O)n(C)c2=O)nnc1-c1ccccc1	22
CCCCc1nc2ccccc2c(=O)n1NC(=O)c1c(O)c2ccccc2n(C)c1=O	14
COC(=O)c1ccc2c(c1)NC(=O)CS2	18
CN1CCC2(CC1)N=C(c1ccc(F)cc1)C(=S)N2C(=O)c1ccc(C(C)(C)C)cc1	-10
Cc1ccccc1NC(=O)CC1SC(=Nc2ccc(O)cc2)NC1=O (stereo not drawn)	15
COc1ccc(NC(=O)N2CCCC(C(=O)NC(C)C)C2)cc1 (stereo not drawn)	2
O=C(NNC(=O)c1ccccc1[N+](=O)[O-])Nc1ccc(Cl)cc1	2
CC1Cc2ccccc2N1S(=O)(=O)c1cccc(C(=O)OCC(=O)NCc2ccco2)c1 (stereo not drawn)	3
COC(=O)c1ccc(NC(=O)COC(=O)c2nc3nccc(C)n3n2)cc1	8
COc1ccc(C/C(N)=N/O)cc1	7
COc1ccc(N(CC(=O)NCc2ccc3c(c2)OCO3)C(=O)CCC(=O)Nc2ccccn2)cc1	25
CC(Cc1ccccn1)NC(=O)CCc1nnc(C2CCCCC2)o1 (stereo not drawn)	3
